# EPAC1 ag val: Validation qHTS for agonist of cAMP-regulated guanine nucleotide exchange factor 3 (EPAC1). hit rate 1% among 16,000. EPAC1 Rap1b BODIPY-GDP exchange, fluorescence. AID 1645883, 2021. Rap guanine nucleotide exchange factor 3 (Homo sapiens), O95398. Potency, µM, for the others: max response, positive = active, hits mostly activators; active means well fitted activation curve with a large enough effect; inconclusive means small, poorly fitted or top-dose-only effect; inactive means no such curve, though single readings can be large or run the other way;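 further: nearly all actives have a fitted effect of over 70% in size; series mostly up to about 76 or 150 µM; scaled to a cAMP control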
# Target sequence (O95398 whole entry, looked up): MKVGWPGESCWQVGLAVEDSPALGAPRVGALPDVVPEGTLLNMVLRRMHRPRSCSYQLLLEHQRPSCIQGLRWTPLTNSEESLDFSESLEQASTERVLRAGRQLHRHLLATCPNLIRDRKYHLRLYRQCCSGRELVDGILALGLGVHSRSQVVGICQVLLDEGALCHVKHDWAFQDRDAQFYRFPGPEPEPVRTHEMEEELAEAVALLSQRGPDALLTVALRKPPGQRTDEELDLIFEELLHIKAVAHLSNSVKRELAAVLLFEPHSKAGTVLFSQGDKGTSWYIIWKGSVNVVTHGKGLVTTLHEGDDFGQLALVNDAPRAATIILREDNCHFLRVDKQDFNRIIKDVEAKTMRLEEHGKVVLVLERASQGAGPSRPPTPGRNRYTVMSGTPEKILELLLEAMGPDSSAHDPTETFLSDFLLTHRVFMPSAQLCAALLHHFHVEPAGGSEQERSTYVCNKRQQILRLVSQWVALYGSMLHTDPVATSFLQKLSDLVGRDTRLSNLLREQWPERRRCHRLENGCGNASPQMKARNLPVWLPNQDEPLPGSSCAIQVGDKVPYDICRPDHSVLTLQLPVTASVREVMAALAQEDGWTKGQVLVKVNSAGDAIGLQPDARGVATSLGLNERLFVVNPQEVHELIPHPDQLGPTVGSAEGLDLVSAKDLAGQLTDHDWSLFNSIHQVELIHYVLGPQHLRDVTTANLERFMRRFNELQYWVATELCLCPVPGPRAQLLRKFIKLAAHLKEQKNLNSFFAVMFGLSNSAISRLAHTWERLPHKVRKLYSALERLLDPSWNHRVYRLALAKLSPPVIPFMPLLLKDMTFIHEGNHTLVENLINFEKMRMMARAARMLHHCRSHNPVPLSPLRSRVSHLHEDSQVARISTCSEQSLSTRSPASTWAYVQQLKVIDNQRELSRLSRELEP
# Numbers without * were called inactive; ? = inconclusive; & = joins results of further samples; [ ] = remark or other dose. On the % scale 0 is the no-effect control and ±100 the full control effect; potency means the concentration at half of the fitted maximal effect.
EPAC1 ag val,SMILES
28.5%,Cc1ccc(SC[C@H](Cc2ccccc2)N2CC[C@@H](C(C)(C)C)CCC2=O)cc1
?,CS(=O)(=O)N1CCC2(CC1)CN(c1cccc(-c3ccccc3)c1)C2
8.2%,CCNc1ncc2ncc(=O)n(Cc3cccs3)c2n1
-13.8%,CN(C)CCCOc1nn(Cc2ccccc2)c2ccccc12
-28.7%,Cc1ccccc1-c1cc(Nc2ccc(F)cc2)ncn1
3.5%,COC(=O)CC1C(C)(C)C(O)C2CC3=C4CC(O)OC(c5ccoc5)[C@]4(C)CCC3[C@@]1(C)C2=O (stereo partly specified)
6.6%,Cc1cnccn1
3.4%,Clc1ccc2nc(-c3ccccc3)[nH]c2c1
-5.7%,Cc1cccc(CNC(=O)c2cnn(-c3nccc(-c4ccccc4C(F)(F)F)n3)c2C)n1
15.5%,CC1C(O)CC2C(C(=O)O)=CO[C@@H](O[C@H]3OC(CO)C(O)C(O)C3O)C21 (stereo partly specified)
24.7%,Nc1nc2ncc(CNc3ccc(C(=O)NC(CCC(=O)O)C(=O)O)cc3)nc2c(=O)[nH]1 (stereo unspecified)
?,c1ccc(-c2cccc(N3CC4(CCNCC4)C3)c2)cc1
-53.9%[inhibitor],COc1ccc(-c2nc3cnc(Nc4cccc(OC)c4)nc3n(C[C@H]3CCCO3)c2=O)cc1
7.1%,c1cncc(OC2CCN(Cc3ccc4c(c3)CN(Cc3ccc5c(c3)OCCO5)CCO4)CC2)c1
-28.5%,Clc1ccccc1-c1nc(NC2CCNCC2)c2ccccc2n1
-5.7%&0.2%,O=C(OCCN1CCCCC1)c1c[nH]c2ccccc12
-62.5%[inhibitor],O=C(c1cc(C(F)(F)F)cc(C(F)(F)F)c1)N1CCC[C@@]2(CCN(c3ccccc3)C2)C1
10.9%,Clc1ccc(N2CCN(Cc3cc4ccccn4n3)CC2)cc1
16.6%,COc1ccc(OC)c2c(C)ccnc12
13.5%,Cc1cccc(CNc2ncncc2-c2ccccc2C)c1
-6.0%,COc1ccc(CN2CCCC(c3nc(-c4ccncc4)ncc3-c3ccccc3)C2)c(OC)c1OC (stereo unspecified)
11.6%,OCC(S)CS (stereo unspecified)
10.0%,CN1[C@@H]2CC(OC(=O)[C@H](CO)c3ccccc3)C[C@@H]1[C@H]1O[C@H]12 (stereo partly specified)
6.1%,COc1cccc2c1CCC1CC(=O)CC[C@@]21C (stereo partly specified)
8.1%&7.7%,O=C1CCN(Cc2ccccc2)CCN1[C@H](CO)Cc1ccccc1

# Of the compounds above, these have an NH in an aromatic ring:
EPAC1 ag val,SMILES
3.4%,Clc1ccc2nc(-c3ccccc3)[nH]c2c1
24.7%,Nc1nc2ncc(CNc3ccc(C(=O)NC(CCC(=O)O)C(=O)O)cc3)nc2c(=O)[nH]1 (stereo unspecified)
-5.7%&0.2%,O=C(OCCN1CCCCC1)c1c[nH]c2ccccc12

# Further structures
EPAC1 ag val,SMILES
2.0%,CCCCC(CC)COS(=O)(=O)O (stereo unspecified)
-4.4%&-2.1%,COc1ccc(NC(=O)c2ccc(-c3ccc(-c4noc(C)n4)cc3C)cc2)cc1OCCN(C)C
14.6%&-10.7%,CNc1cc(NS(=O)(=O)c2ccc(N)cc2)nc(NC)n1
-5.1%,O=C1CC[C@@H](C(=O)N[C@H]2C[C@@H]2c2ccccc2)N1
11.3%,Cc1nn(C)cc1CN1CCOc2ccc(CN3CCC(Oc4cccnc4)CC3)cc2C1
-3.7%,CS(=O)(=O)Nc1cc(C(=O)N2CCNC(=O)C2)c2c(c1)ncn2CCc1ccccc1
3.5%,O=C(Oc1ccccc1C(=O)O)c1ccccc1O
-69.1%[inhibitor],O=C(c1csnn1)N1CCC[C@@]2(CCN(Cc3nccs3)C2)C1
-2.7%,COc1ccc(C)cc1N1C(=O)[C@@H]2C[C@H]1CN2Cc1cccc(OC)c1O
-51.1%[inhibitor],COc1ccc(-c2nc3cnc(OC)nc3n(-c3ccc(OC)cc3)c2=O)cc1
-96.0%[inhibitor],CS(=O)(=O)N1CCC2(CCN(C(=O)Nc3cccc(F)c3)CC2)CC1
6.3%,CC(C)(CNC(=O)c1cnn(-c2nccc(-c3cc4ccccc4o3)n2)c1C1CC1)N1CCOCC1
0.7%,O=Nc1ccc2oc(=O)ccc2c1
-42.6%[inhibitor],COc1ccc(-n2c(=O)cnc3cnc(Oc4ccccc4)nc32)cc1
0.1%,N[C@@H](Cc1ccc(O)c(I)c1)C(=O)O
-7.5%,CC1CC2C(C(O)C[C@]3(C)C2CC[C@]3(O)C(=O)CO)[C@]2(C)C=CC(=O)C=C12 (stereo partly specified)
3.7%,Cc1ccc(CNc2nc(CN3CCN(C=O)CC3)nc3ccccc23)o1
-93.4%[inhibitor],CCC1COCCS(=O)(=O)N1Cc1cccc(Cl)c1 (stereo unspecified)
7.0%,Cc1nc2cc(NC(=O)[C@@H]3C[C@@H](Sc4ccccn4)CN3Cc3cccc(F)c3)ccc2s1
4.0%,Oc1cc(-c2nc3ccccc3s2)cc2c1OCCN(Cc1cccn1-c1ccc(Cl)cn1)C2
9.3%,Cc1noc(C)c1C(=O)N1CCC2(CCCN(c3ccncc3)C2)CC1
-41.7%[inhibitor],O=c1c(-c2ccc(F)cc2)nc2cncnc2n1Cc1ccc(F)cc1
-3.0%,O=C(NCCO)c1cn(C2CCCN(Cc3cccc(C(F)(F)F)c3)C2)nn1 (stereo unspecified)
12.2%,Cc1c(C(=O)NCCc2cccnc2)cnn1-c1nccc(-c2ccccc2F)n1
-6.7%,Cc1ccccc1-c1cccc(CN2CCc3nnc(C(NS(C)(=O)=O)C(C)C)n3CC2)c1 (stereo unspecified)
?,COc1ccc(-c2cn(Cc3ccc4c(c3)C(=O)c3ccccc3C4=O)nn2)cc1
-16.6%,Cc1cc(O)c2c(c1)O[C@@]1(C)CC[C@H]3C(C)(C)CCCC34CO[C@@H]2[C@H]41 (stereo partly specified)
1.3%,Cc1ccccc1C1(CC(=O)N2CCCCC2c2cccnc2)CC(=O)N(C2CCCC2)C1=O (stereo unspecified)
-10.6%,COc1cc(-c2cccnc2)cc2c1OCCN(C(=O)Cc1csc(C)n1)C2
-10.0%,COc1cc(O)c2c(=O)cc(-c3ccccc3)oc2c1
-15.3%,CNc1ccc(/C=C2\C=Cc3ccccc32)cc1
-0.9%,Nc1ccc(S(=O)(=O)Nc2ccccc2)cc1
6.7%,COc1ccccc1-c1ccnc(-n2ncc(C(=O)N3CCN(C(C)C)CC3)c2-c2ccco2)n1
-19.5%&-8.3%,Nc1ncnc2c1ncn2[C@H]1CC[C@@H](CO)O1
-7.1%,COc1cc2c(cc1OC)C1CC(=O)C(CC(C)C)CN1CC2 (stereo unspecified)
-8.4%,COc1ccc2c(c1)CCc1cnc(-n3ncc(C(=O)NCCCc4ccncc4)c3C)nc1-2
-8.4%,Cc1nc(C)n(CC(=O)NCC2Cc3cc(-c4ccsc4)cc(Cl)c3O2)n1 (stereo unspecified)
-2.1%,COc1ncc2nc(-c3cccc(C#N)c3)c(=O)n(CCC#N)c2n1
-26.2%,CNc1ccnc(-c2cccc(NS(C)(=O)=O)c2)n1
-9.9%,C=C1CCC(C2CC(=O)OC2=O)C(=O)CCC2C1CC2(C)C (stereo unspecified)
-11.1%,CC[C@@H]1[C@H]2CCCC(=O)N3CC[C@@H](C[C@@H]1OC(=O)NCc1ccccc1)[C@@H]23
?,COc1cc2c(cc1OC)C(C(C(=O)N(CCc1ccc(OC)c(OC)c1OC)CCc1ccc(OC)c(OC)c1OC)c1ccccc1)=NCC2 (stereo unspecified)
-78.0%[inhibitor],CN1CCN(c2ncc3nc(-c4ccccc4)c(=O)n(CCc4ccccc4)c3n2)CC1
0.8%,NC1(C(=O)O)CCCCC1
-66.2%[inhibitor],O=C(Nc1ccccc1)N1CCCC2(CCN(C(=O)c3cccc(F)c3)CC2)C1
0.5%,CCC1CN(Cc2cccc3nccnc23)Cc2cc(OC)ccc2O1 (stereo unspecified)
-30.8%[inhibitor],CCCc1c(OCCCOc2ccc(OCC(=O)O)cc2)ccc(CC=O)c1O
26.1%,COC(=O)N1CCC2(CC1)CN(c1ccc(-c3ccccc3)cc1)C2
11.2%,CN(C)c1ncc2nc(-c3cc(F)cc(F)c3)c(=O)n(-c3ccccc3)c2n1
-79.8%[inhibitor],O=C(c1cnccn1)N1CCC[C@@]2(CCN(c3ncccn3)C2)C1

# Next results.
EPAC1 ag val,SMILES
0.2%,COc1ccc(Cl)cc1-c1cc2c(c(OC)c1)OCCN(Cc1cccn1-c1nccs1)C2
?,COc1ccc2[nH]cc(CCNc3ncnc4ccc(-c5ccccc5OC)cc34)c2c1
-50.5%[inhibitor],O=C(c1cnccn1)N1CCC[C@@]2(CCN(Cc3nccs3)C2)C1
-10.5%,CC1(C)[C@@H]2CC[C@@]1(C)[C@H](OC(=O)CSC#N)C2
18.3%,COC(=O)C1C(=O)C(C(=O)/C=C/c2ccco2)C(=O)CC1(C)C (stereo unspecified)
-19.4%,COc1ccc(C(=O)N2CCOc3ccc(CN4CCN(c5ccccn5)CC4)cc3C2)o1
18.0%,CN1CCC(=O)N([C@H](CSc2ccccc2)c2ccccc2)CC1
17.3%,N#Cc1cccc(-c2nc3cnc(Oc4cccc(Cl)c4)nc3n(C3CC3)c2=O)c1
2.3%,CS(=O)(=O)Nc1cccc(-c2cc(Nc3ccccc3)ncn2)c1
-6.1%,C#Cc1cccc(C(=O)NCc2nc(-c3ccccc3NC(=O)C3CCCO3)oc2C)c1 (stereo unspecified)
25.2%,COC(=O)C1OC(=O)C2O[C@@]23[C@]2(C)C(OC(C)=O)CC4C(C)(C)C(=O)CC[C@]4(C)C2CC[C@@]13C (stereo partly specified)
5.4%,COc1cc(=O)n2c(c1C(=O)NCc1ccco1)CCN(C(=O)c1cccnc1SC)CC2
11.0%&26.0%,CN1Cc2c(N)cccc2C(c2ccccc2)C1 (stereo unspecified)
-14.1%,Cc1ccnc2c(O)cccc12
?,CC(=O)C1(C)CC2(CC(C)(C)OC2=O)C(=O)O1 (stereo unspecified)
-3.3%,CO[C@H]1[C@H](NC(=O)c2ccco2)c2ccccc2C12CCN(Cc1cnc(N(C)C)s1)CC2
-97.9%[inhibitor],COc1ccc(-c2nc3cnc(OC)nc3n(Cc3cccc(OC)c3)c2=O)cc1
-2.6%,CC[C@H](CC[C@@H](C)[C@H]1CC[C@H]2[C@@H]3CC=C4C[C@@H](O)CC[C@]4(C)[C@H]3CC[C@]12C)C(C)C
100µM*,CN(C)c1ncc2nc(-c3cccs3)c(=O)n(C3CC3)c2n1
13.2%,Cc1cc(C)c2c(n1)NCCC2
-4.4%,CCS(=O)(=O)Nc1cc(C(=O)N2CCCN(C=O)CC2)c2c(c1)nc(-c1ccccc1)n2C
28.2%,Cc1cnnc2ccccc12
-57.8%[inhibitor],CC[C@H](C)[C@H]1O[C@]2(CC[C@@H]1C)C[C@@H]1C[C@@H](C/C=C(\C)[C@@H](O[C@H]3C[C@H](OC)[C@@H](O[C@H]4C[C@H](OC)[C@@H](O)[C@H](C)O4)[C@H](C)O3)[C@@H](C)/C=C/C=C3\CO[C@@H]4[C@H](O)C(C)=C[C@@H](C(=O)O1)[C@]34O)O2
3.1%,CCCCC/C=C\CC(O)/C=C/c1cccc(CC(O)CCCCO)n1 (stereo unspecified)
?,COCCn1c(=O)cnc2cnc(N3CCN(C)CC3)nc21

# The list goes on; it opens with the two that closed the last part.
EPAC1 ag val,SMILES
3.1%,CCCCC/C=C\CC(O)/C=C/c1cccc(CC(O)CCCCO)n1 (stereo unspecified)
?,COCCn1c(=O)cnc2cnc(N3CCN(C)CC3)nc21
-19.4%&1.4%,C/C(=C\COc1cc(=O)[nH]c2ccccc12)CCC(O)C(C)(C)O (stereo unspecified)
-18.6%,N#CC(C#N)=C(N)/C(C#N)=C/c1cc(O)c(O)c(O)c1
-45.9%[inhibitor],CS(=O)(=O)N1CCC[C@@]2(CCN(c3ncccn3)C2)C1
10.8%&-16.0%,C=C(Nc1ccc(OCC)cc1)Nc1ccc(OCC)cc1
-0.5%,CCN1/C(=C/C(C)=O)Sc2ccc(OC)cc21
-2.3%,CO[C@H]1[C@H](NC(=O)c2ccsc2)c2ccccc2C12CCN(Cc1cccc3ncccc13)CC2
-1.5%,Cc1ncc2c(c1CNC(=O)/C=C/c1cccs1)CCN(C(=O)c1c(C)noc1C)C2
-3.1%&11.8%,CC(=O)OCC(COC(C)=O)OC(C)=O
-4.9%,NC1CCN(O)C1=O (stereo unspecified)
-20.6%,CC[C@@H](CO)NCCN[C@@H](CC)CO
?,CC(=O)Nc1ccc(S[C@@H](CCN2CC[C@H](O)CCC2=O)c2ccccc2)cc1
-32.6%[inhibitor],COc1ccccc1CNc1ncnc2ccc(-c3ccc(C(=O)N(C)C)cc3)cc12
12.0%,O=c1ccc2ccc(O)c(O)c2o1
?,CC1CCC2(OC1)OC1CC3C4CCC5CC(O)CCC5(C)C4=CCC3(C)C1C2C (stereo unspecified)
25.2%,CCCC1OC2CC3C4CCC5=CC(=O)C=CC5(C)C4C(O)CC3(C)[C@]2(C(=O)CO)O1 (stereo partly specified)
-1.1%,[O-][n+]1ccccc1SSc1cccc[n+]1[O-]

# Five of the entries above in order of the EPAC1 ag val value, rising:
Compound	EPAC1 ag val
CC[C@@H](CO)NCCN[C@@H](CC)CO	-20.6%
NC1CCN(O)C1=O (stereo unspecified)	-4.9%
CO[C@H]1[C@H](NC(=O)c2ccsc2)c2ccccc2C12CCN(Cc1cccc3ncccc13)CC2	-2.3%
CCN1/C(=C/C(C)=O)Sc2ccc(OC)cc21	-0.5%
CCCC1OC2CC3C4CCC5=CC(=O)C=CC5(C)C4C(O)CC3(C)[C@]2(C(=O)CO)O1 (stereo partly specified)	25.2%

# Quoted from the listing.
# [O-][n+]1ccccc1SSc1cccc[n+]1[O-] in EPAC1 ag val: -1.1%
# CCCC1OC2CC3C4CCC5=CC(=O)C=CC5(C)C4C(O)CC3(C)[C@]2(C(=O)CO)O1 (stereo partly specified) in EPAC1 ag val: 25.2%

# An excerpt. The share of hits here may be higher or lower than overall.
